# Vaccinia inh: blocks a specific stage of Vaccinia orthopoxvirus infection, primary screen, cell-based, single point | Vaccinia-infected cells, mCherry/Venus stage reporter fluorescence; active compounds read low; some inactives read as strong as hits | activity change (mCherry), % (no concentration beside the values) | hit rate 0.01% among 89,000 | AID 1053133, 2014;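 active = mCherry past -33% and 40 or more points under the early reporter, replicates agreeing; inconclusive = past -33% without that gap or agreement; tested in A549 cells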;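 note: scaled between vehicle wells and reference inhibitor wells; 23 nL library stock went into each well; one replicate is shown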
# Vaccinia inh Venus: also measured in Vaccinia inh; calls as there; activity change (Venus), %; measured here: Venus reporter, other viral stage;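 negative = less Venus signal; first of two replicates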
# Starred values were filed as active, the others as inactive; ? = inconclusive; . = no result given; & = joins results of further samples. The list is partial; the hit share may differ from the screen's.
# The opening 6 entries as a preview:
smiles,Vaccinia inh,Vaccinia inh Venus
O=C(C[C@H]1C[C@@H]2c3cc(NC(=O)Nc4ccccc4)ccc3O[C@@H]2[C@H](CO)O1)NC1CCCC1,15,2
CCCNC(=O)N1[C@H](CO)[C@@H](c2ccccc2C2=CCCC2)[C@@H]1C#N,?,.
COC(=O)[C@@H]1[C@@H](CO)[C@@H]2Cn3c(ccc(-c4ccncc4)c3=O)[C@H]1N2S(=O)(=O)c1ccccc1F,8,5
COCC(=O)N1C[C@H](C)[C@@H](OC)CN(C)C(=O)c2cc(NC(=O)Nc3cccc(F)c3)ccc2OC[C@@H]1C,9,11
C[C@@H]1CN([C@@H](C)CO)C(=O)Cc2cc(NC(=O)Cn3cnnn3)ccc2O[C@H]1CN(C)Cc1ccc2c(c1)OCO2,13,16
C[C@@H]1CCCCO[C@@H](CN(C)S(=O)(=O)c2ccc(Cl)cc2)[C@H](C)CN([C@@H](C)CO)C(=O)c2cc(NS(=O)(=O)c3cccs3)ccc2O1,?,.

# All compounds of this part (from the top)
smiles,Vaccinia inh,Vaccinia inh Venus
O=C(C[C@H]1C[C@@H]2c3cc(NC(=O)Nc4ccccc4)ccc3O[C@@H]2[C@H](CO)O1)NC1CCCC1,15,2
CCCNC(=O)N1[C@H](CO)[C@@H](c2ccccc2C2=CCCC2)[C@@H]1C#N,?,.
COC(=O)[C@@H]1[C@@H](CO)[C@@H]2Cn3c(ccc(-c4ccncc4)c3=O)[C@H]1N2S(=O)(=O)c1ccccc1F,8,5
COCC(=O)N1C[C@H](C)[C@@H](OC)CN(C)C(=O)c2cc(NC(=O)Nc3cccc(F)c3)ccc2OC[C@@H]1C,9,11
C[C@@H]1CN([C@@H](C)CO)C(=O)Cc2cc(NC(=O)Cn3cnnn3)ccc2O[C@H]1CN(C)Cc1ccc2c(c1)OCO2,13,16
C[C@@H]1CCCCO[C@@H](CN(C)S(=O)(=O)c2ccc(Cl)cc2)[C@H](C)CN([C@@H](C)CO)C(=O)c2cc(NS(=O)(=O)c3cccs3)ccc2O1,?,.
O=C(Nc1ccc(C(F)(F)F)cc1)N1[C@@H]2CNC[C@H]1C2c1ccc(-c2ccccc2F)cc1 (some centres undefined),-8,5
O=S(=O)(c1ccccc1)N1C[C@H]2[C@@H](c3ccccc31)[C@@H](CO)N2Cc1ccc2c(c1)OCO2,-1,11
Cc1ccc(-c2cnc3c(c2)C(=O)N([C@H](C)CO)C[C@@H](C)[C@H](CN(C)CC2CCCC2)O3)cc1,?,.
O=C(NCC[C@@H]1CC[C@@H](NS(=O)(=O)c2cccc(F)c2)[C@H](CO)O1)C1CCCCC1,11,5
CO[C@@H]1CN(C)C(=O)c2ccc(NC(=O)c3ccno3)cc2OC[C@H](C)N(S(C)(=O)=O)C[C@H]1C,22,11
C[C@H]1CN([C@@H](C)CO)C(=O)Cc2cc(NS(=O)(=O)c3cn(C)cn3)ccc2O[C@H]1CN(C)Cc1ccc(Oc2ccccc2)cc1,-23,-8
CC(C)NC(=O)N(C)C[C@H]1OCCCC[C@H](C)Oc2ccc(NC(=O)Nc3ccc(C(F)(F)F)cc3)cc2C(=O)N([C@H](C)CO)C[C@H]1C,-2,0
C[C@@H]1CN([C@@H](C)CO)C(=O)c2cc(-c3ccc(C#N)cc3)cnc2O[C@H]1CN(C)C(=O)Nc1ccccc1,4,2
COc1ccccc1NC(=O)N[C@H]1C=C[C@@H](CC(=O)N[C@H](C)c2ccccc2)O[C@H]1CO,-7,3
C[C@H](CO)N1C[C@H](C)[C@H](CN(C)C(=O)Nc2ccc3c(c2)OCO3)Oc2ccc(NC(=O)Cc3cn(C)c4ccccc34)cc2CC1=O,8,11
Cc1ccc(S(=O)(=O)NCC[C@H]2CC[C@H](NC(=O)CCN3CCCCC3)[C@H](CO)O2)cc1,5,12
O=C(C[C@@H]1CC[C@H]2[C@@H](COC[C@H](O)CN2Cc2cc(F)ccc2F)O1)NCc1ccc(F)cc1,-6,9
C[C@H](CO)N1C[C@H](C)[C@H](CN(C)S(=O)(=O)c2ccc(F)cc2)Oc2cc(C3=CCCCC3)ccc2S1(=O)=O,?,.
CCCNC(=O)N1[C@@H]2Cn3c(ccc(-c4ccccc4OC)c3=O)[C@H]1[C@@H](C(=O)O)[C@@H]2CO,16,11

# Some of these compounds in order of length of the SMILES, smallest number first:
smiles,Vaccinia inh,Vaccinia inh Venus
O=C(C[C@H]1C[C@@H]2c3cc(NC(=O)Nc4ccccc4)ccc3O[C@@H]2[C@H](CO)O1)NC1CCCC1,15,2
CO[C@@H]1CN(C)C(=O)c2ccc(NC(=O)c3ccno3)cc2OC[C@H](C)N(S(C)(=O)=O)C[C@H]1C,22,11
C[C@H](CO)N1C[C@H](C)[C@H](CN(C)C(=O)Nc2ccc3c(c2)OCO3)Oc2ccc(NC(=O)Cc3cn(C)c4ccccc34)cc2CC1=O,8,11

# Additional records
smiles,Vaccinia inh,Vaccinia inh Venus
CCC(=O)N[C@@H]1CC[C@@H](CCNS(=O)(=O)c2ccc(Cl)cc2)O[C@H]1CO,3,5
C[C@H](CO)N1C[C@H](C)[C@@H](CN(C)C(=O)CN(C)C)Oc2cc(C#C[C@@H](C)O)ccc2S1(=O)=O,0,4
C[C@H]1CCCCO[C@H](CN(C)C)[C@@H](C)CN([C@@H](C)CO)C(=O)c2cc(NC(=O)Nc3ccccc3)ccc2O1,-6,-8
C[C@@H]1CN([C@H](C)CO)C(=O)c2cccc(NS(=O)(=O)c3cccs3)c2O[C@H]1CN(C)Cc1ccccc1,6,8
C[C@@H]1CCCCO[C@@H](CN(C)Cc2ccncc2)[C@@H](C)CN([C@@H](C)CO)C(=O)c2cc(NC(=O)CCCN(C)C)ccc2O1,4,7
COCC#Cc1ccc2c(c1)O[C@@H](CN(C)C(=O)c1ccccc1)[C@H](C)CN([C@@H](C)CO)S2(=O)=O,-3,-8
C[C@@H]1CN([C@@H](C)CO)C(=O)c2cc(NS(=O)(=O)c3ccc(F)cc3)ccc2O[C@@H](C)CCCCO[C@@H]1CN(C)Cc1ccccc1,?,.
C[C@H](CO)N1C[C@H](C)[C@H](CN(C)CC2CCCCC2)Oc2ncc(-c3ccc(F)cc3)cc2C1=O,-16,-13
C/C=C/c1ccc([C@@H]2[C@@H](C#N)N(C(=O)NC3CCCCC3)[C@@H]2CO)cc1,0,12
C[C@@H]1CN([C@H](C)CO)C(=O)c2cc(NC(=O)Nc3cccc4ccccc34)ccc2O[C@H]1CN(C)S(=O)(=O)c1ccccc1,-8,-6
Cc1noc(C)c1S(=O)(=O)Nc1ccc2c(c1)C(=O)N([C@@H](C)CO)C[C@H](C)[C@H](CN(C)Cc1ccc(C(F)(F)F)cc1)OCCCC[C@H](C)O2,?,.
O=C(c1ccc2c(c1)OCO2)N1C[C@H]2[C@@H](c3ccccc31)[C@@H](CO)N2Cc1cccnc1,24,11
COc1ccc(S(=O)(=O)Nc2ccc3c(c2)C(=O)N([C@@H](C)CO)C[C@@H](C)[C@H](CN(C)S(=O)(=O)c2cccs2)O3)cc1,11,6
N#C[C@@H]1[C@@H](c2ccccc2-c2ccccc2F)[C@@H](CO)N1C(=O)c1ccccn1,-2,8
COCC(=O)N1CCCCN2[C@H](CO)[C@@H](c3ccc(C#Cc4cccnc4)cc3)[C@H]2C1,11,3
CN(C)CC(=O)N1CCCCN2[C@@H](CO)[C@H](c3ccc(-c4cccnc4)cc3)[C@@H]2C1,17,10
CCNC(=O)C[C@H]1CC[C@H]2[C@H](COc3ccc(NC(=O)Nc4ccc(F)cc4)cc3C(=O)N2C)O1,8,7
COc1ccc(NC(=O)Nc2ccc3c(c2)CC(=O)N([C@H](C)CO)C[C@@H](C)[C@H](CN(C)Cc2ccccc2)O3)cc1,-17,-13
C[C@@H]1CN([C@H](C)CO)C(=O)c2cc(NC(=O)Cn3cnnn3)ccc2O[C@H]1CN(C)C(=O)NC1CCCCC1,13,9
COc1ccccc1CN1[C@@H]2CN(C(=O)C3CC3)c3ccccc3[C@@H]2[C@@H]1CO,-9,4
CCCN(C)C[C@@H]1Oc2ncc(Br)cc2C(=O)N([C@@H](C)CO)C[C@@H]1C,14,7
O=S(=O)(NC[C@H]1N[C@@H](CO)[C@H]1c1ccc(C2=CCCC2)cc1)c1ccccc1,2,13
C[C@@H]1CN([C@@H](C)CO)C(=O)Cc2cc(NS(=O)(=O)c3ccc(Cl)cc3)ccc2O[C@@H]1CN(C)CC1CC1,-2,0
C[C@H]1CN([C@@H](C)CO)C(=O)c2cccc(NC(=O)C3CC3)c2O[C@@H]1CN(C)C(=O)Nc1ccc2c(c1)OCO2,11,12
C[C@@H](O)C#Cc1ccc([C@@H]2[C@@H](CO)N3CCCCN(S(=O)(=O)Cc4ccccc4)C[C@H]23)cc1,13,11
C[C@@H]1CN([C@@H](C)CO)C(=O)CCCn2cc(nn2)CO[C@H]1CN(C)S(=O)(=O)c1cccc(F)c1,22&10,13&6
C[C@H](O)C#Cc1ccc2c(c1)O[C@H](CN(C)C(=O)CC1CC1)[C@H](C)CN([C@@H](C)CO)S2(=O)=O,6,8
C[C@H]1CN([C@@H](C)CO)S(=O)(=O)c2ccc(C#CC3(O)CCCC3)cc2O[C@H]1CN(C)C(=O)c1cccnc1,8,10
C[C@@H]1CN([C@@H](C)CO)C(=O)c2cc(NC(=O)Nc3ccccc3)ccc2O[C@H]1CN(C)S(=O)(=O)c1ccccc1,2,6
O=C(NCc1ccc(F)cc1)[C@H]1[C@H](CO)[C@H]2Cn3c(cccc3=O)[C@@H]1N2C(=O)Cc1ccccn1,11,5
COCC(=O)N1C[C@@H](C)[C@@H](OC)CN(C)C(=O)c2cc(NS(C)(=O)=O)ccc2OC[C@@H]1C,-14,-2
O=C(C1CCOCC1)N1CC(=O)N2[C@@H](CO)[C@@H](c3ccc(C#CC4CCCC4)cc3)[C@@H]2C1,-2,1
Cc1ccc(S(=O)(=O)N[C@H]2CC[C@H](CC(=O)NCc3ccc(Cl)c(Cl)c3)O[C@H]2CO)cc1,-18,-17
CN(C)C(=O)c1ccc(-c2ccc([C@@H]3[C@@H](CO)N(C(=O)C4CCC4)[C@H]3C#N)cc2)cc1,-23,-16
CCC(=O)N1[C@H](C(=O)N[C@@H](C)c2ccccc2)[C@@H](CO)[C@@H]2Cn3c(cccc3=O)[C@@H]21,2,2
O=C(C[C@H]1C=C[C@H](NC(=O)Nc2cccc(F)c2)[C@H](CO)O1)NCC1CCCCC1,-10,-12
CNC(=O)C[C@@H]1CC[C@H]2[C@@H](COC[C@@H](O)CN2C(=O)Nc2ccc(Cl)c(Cl)c2)O1,19,18
CC(C)CC#Cc1ccc2c(c1)O[C@H](CN(C)C(=O)NC1CCCC1)[C@@H](C)CN([C@H](C)CO)S2(=O)=O,-5,-5
C[C@H](CO)N1C[C@H](C)[C@@H](CN(C)S(=O)(=O)c2ccccc2)Oc2ccc(NC(=O)Nc3ccc(C(F)(F)F)cc3)cc2C1=O,-33,-20
CC(C)CC#Cc1cnc2c(c1)C(=O)N([C@@H](C)CO)C[C@H](C)[C@H](CN(C)Cc1cncnc1)O2,7,0

# (continued)
smiles	Vaccinia inh	Vaccinia inh Venus
CO[C@H]1CN(C)C(=O)c2ccc(NC(C)=O)cc2OC[C@H](C)N(C(=O)c2ccc(F)cc2)C[C@@H]1C	18	10
Cc1ccc(S(=O)(=O)N(C)C[C@H]2Oc3ccc(NC(=O)CCN4CCOCC4)cc3CC(=O)N([C@@H](C)CO)C[C@@H]2C)cc1	-3	-1
O=C(Nc1ccccc1F)N[C@@H]1CC[C@H](CCNC(=O)C2CCCC2)O[C@H]1CO	-8	6
Cc1noc(C)c1S(=O)(=O)N(C)C[C@H]1OCCCC[C@@H](C)Oc2ccc(NC(=O)CCCN(C)C)cc2C(=O)N([C@H](C)CO)C[C@@H]1C	16	5
CCCN(C)C[C@@H]1Oc2cc(/C=C/c3ccccc3)ccc2S(=O)(=O)N([C@H](C)CO)C[C@@H]1C	-28	-23
COc1ccc(NC(=O)Nc2ccc3c(c2)C(=O)N([C@H](C)CO)C[C@H](C)[C@H](CN(C)Cc2ccc(C(=O)Nc4ccccc4N)cc2)O3)cc1	5	1
Cc1noc(C)c1NC(=O)Nc1ccc2c(c1)C(=O)N([C@H](C)CO)C[C@@H](C)[C@H](CN(C)Cc1ccc(C(F)(F)F)cc1)OCCCC[C@@H](C)O2	?	.
CC(C)NC(=O)N(C)C[C@H]1OCCCC[C@H](C)Oc2ccc(NC(=O)c3ccccc3)cc2C(=O)N([C@@H](C)CO)C[C@@H]1C	-21	-12
COc1ccc2c3c([nH]c2c1)[C@H](CO)N(Cc1nccs1)CC31CCN(Cc2cncnc2)CC1	8	4
C[C@H](CO)N1C[C@H](C)[C@@H](CN(C)Cc2ccc(-c3ccccc3)cc2)Oc2c(NS(=O)(=O)c3cn(C)cn3)cccc2C1=O	20	17
COc1ccc(NC(=O)Nc2ccc3c(c2)C(=O)N([C@H](C)CO)C[C@H](C)[C@@H](CN(C)Cc2ccncc2)OCCCC[C@H](C)O3)cc1	29	12
CCCC#Cc1ccc2c(c1)O[C@H](CN(C)C(=O)Nc1ccc(OC)cc1)[C@@H](C)CN([C@H](C)CO)S2(=O)=O	?	.
COc1ccc2c3c([nH]c2c1)[C@H](CO)N(Cc1ccccc1OC)CC31CN(S(=O)(=O)c2ccccc2)C1	-2	-4
C[C@H]1CN([C@@H](C)CO)C(=O)c2cccc(NC(=O)C3CCCCC3)c2O[C@H]1CN(C)Cc1ccc(Oc2ccccc2)cc1	-12	-12
COc1cccc(S(=O)(=O)N2CCCCN3[C@@H](CO)[C@@H](c4ccc(-c5ccccc5)cc4)[C@@H]3C2)c1	?	.
COCC(=O)N1C[C@@H]2[C@H](c3ccccc31)[C@@H](CO)N2C(=O)Nc1ccccc1F	-4	4
C[C@H]1CN([C@@H](C)CO)C(=O)CCCn2nncc2CO[C@H]1CN(C)Cc1ccccc1C(F)(F)F	-8	6
O=C(C[C@H]1CC[C@H](NS(=O)(=O)c2cccc(F)c2)[C@H](CO)O1)N1CCCCC1	1	2
